Source: PubChem BioAssay (ICCB-Longwood Screening Facility, Harvard Medical School)
Sa growth 42C – blocks Staphylococcus aureus growth | relative growth, % (test concentration not listed) | 170,000 tested, 0.53% active | S. aureus RN4220 growth, OD600, 20 h, 42 °C; stronger effect = lower value;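 active = growth at 42 °C up to 50% and 20 or more points under that at 30 °C, or under 10% at both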;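 also: 300 nL library stock went into each well; scaled to the means of positive and negative controls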
HCMV UL50-53 inh – cytomegalovirus nuclear egress complex inhibition. HTRF UL50-UL53 interaction, normalized percent inhibition. inhibition, % (test concentration not listed). 190,000 tested, 0.15% active. AID 1918969;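 active = both replicates at 50% or more, plus weaker picks with an unusually low signal ratio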;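 also: stock transfer was 100 nL into about 20 µL; 0% = negative control wells and 100% = wells with untagged competitor protein; inactives centre near -12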
GIV-Gai inh – inhibitors of GIV GBA-motif binding to rat Galpha-i3. P08753. Galpha-i3/FITC-GIV peptide fluorescence polarization, 90 min; stronger effect = lower value; scaled: aluminum fluoride 0%, vehicle 100%. percent of control (FP), % (test concentration not listed). 210,000 tested, 0.42% active. AID 1224905;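 active = replicate mean at 85% of control or lower, very high polarization wells dropped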;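 also: wells of about 15 µL received 100 nL stock; the first replicate is given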
Target sequence (P08753 whole entry, looked up): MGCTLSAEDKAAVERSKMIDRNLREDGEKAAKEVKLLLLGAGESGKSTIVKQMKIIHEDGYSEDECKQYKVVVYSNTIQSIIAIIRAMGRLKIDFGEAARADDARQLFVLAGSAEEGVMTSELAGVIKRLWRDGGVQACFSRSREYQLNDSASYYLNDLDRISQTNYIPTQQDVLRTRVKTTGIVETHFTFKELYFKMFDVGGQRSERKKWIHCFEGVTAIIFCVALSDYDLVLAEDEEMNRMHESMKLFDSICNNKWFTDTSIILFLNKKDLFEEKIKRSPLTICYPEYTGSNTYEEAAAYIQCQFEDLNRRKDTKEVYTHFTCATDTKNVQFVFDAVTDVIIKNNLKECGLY
Sa growth 42C second temp – second read-out of Sa growth 42C, no call of its own (marks repeat the call); relative growth, %; measured here: growth at 30 °C;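 optical density after 20 h as mean of two plates; 100% = untreated growth and lower means inhibition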
An asterisk follows results filed as active; nt = no result given; & = joins results of further samples.

SMILES	Sa growth 42C	Sa growth 42C second temp	HCMV UL50-53 inh	GIV-Gai inh
CCOC(=O)C1=C(C)OC2=C(C(=O)CC(C)(C)C2)C1c1ccc(CC)s1 (stereo not given)	80	88	-28	nt
CCOC(=O)C1=C(N)OC2=C(C(=O)CCC2)C1c1ccc(CC)s1 (stereo not given)	nt	nt	-14	110
Cc1c(C(=O)N(C)C)sc2c1c(=O)n(-c1ccc(Cl)c(Cl)c1)c(=O)n2CC(=O)N1CCCCC1C (stereo not given)	100	82	nt	102
CC(C)CCNC(=O)C1(C)CCC(=O)N1CCCN1CCCC1=O (stereo not given)	nt	nt	-34	106
Cc1ccc(S(=O)(=O)N2CCN(C3=CC(=O)CC(C)(C)C3)CC2)cc1	102	95	-6	nt
COc1cccc(NC(=O)Cn2ncc3c2-c2ccccc2OC3)c1	93	92	3	103
COc1cccc(NC(=O)c2ccc(-n3cccn3)nc2)c1	nt	nt	-10	104
Cc1cc(C)n(CCCNC(=O)c2ccccc2NC(=O)c2ccco2)n1	138	110	28	nt
CCNc1nc(NC(C)C)nc(Oc2ccc(C(=O)OC)cc2)n1	nt	nt	-11	108
Nc1no[n+]([O-])c1C(=O)NCCO	101	108	-16	104
O=C1CC(c2cccc(O)c2)C2=C(CC(c3ccc(F)cc3)CC2=O)N1 (stereo not given)	93	83	-16	106
Cc1ccc(Nc2cc(N3CCCCC3)c3nonc3c2[N+](=O)[O-])cc1C	nt	nt	-18	101
CCN(CC1COc2ccccc2O1)C(=O)c1cnccn1 (stereo not given)	87	92	11	nt
Cc1ccc(N=C2NC(=O)CC(C(=O)Nc3ccc(Cl)cc3)S2)cc1C (stereo not given)	93	88	nt	106
CCN(c1ccccc1)S(=O)(=O)c1ccc(C(=O)N2CCN(c3ncccn3)CC2)cc1	78	97	-22	nt
N#Cc1nc(-c2ccc(S(=O)(=O)N3CCOCC3)cc2)oc1NCC1CCCO1 (stereo not given)	nt	nt	-10	107
Cn1c2c(c(=O)n(C)c1=O)CN(C1CCCC1)CN2	115	89	nt	101
Cc1nn(-c2ccccc2)nc1CNC(=O)c1ccc2nsnc2c1	94	88	-83	108
COc1cccc2c1OC(c1ccco1)N1N=C(c3ccccc3)CC21 (stereo not given)	74	73	-40	135
Cc1ccc(-n2nc(C)c3c(C)c(CCC(=O)NCc4ccc(Cl)cc4)c(C)nc32)cc1	111	91	-13	101
CC1=C(c2ccccc2)S(=O)(=O)NC1=NC1CCN(Cc2ccccc2)CC1	84	84	-9	98
CCCN1CCN(CCCNC(=O)c2ccc(CS(=O)c3ccc(OC)cc3)o2)CC1 (stereo not given)	111	92	nt	102
Fc1cc(Br)ccc1Nc1c2c(nc3nc(-c4cccs4)nn13)CCCC2	81	59	nt	108
Cc1cc2c(cc1S(=O)(=O)Nc1cccc(Cl)c1C)n(C)c(=O)c(=O)n2C	117	91	nt	101
Cc1cccc(Nc2cc(Nc3ccc4c(c3)n(C)c(=O)n4C)ncn2)c1	114	71	-15	103
Oc1ccc(-n2nnnc2SCc2ccc(-n3ccnc3)cc2)cc1	95	94	-12	nt
COCCNC(=O)c1ccc2c(c1)N(Cc1c(F)cccc1Cl)C(=O)c1ccccc1S2	96	88	-20	105
CCOC(=O)c1cc2c(=O)n3ccccc3nc2n(C2CCCCC2)c1=N	99	93	-35	107
C/C(=N\O)c1c(O)cc(-c2ccccc2)n(-c2ccccc2)c1=O	102	96	1	103
CC(Oc1ccc(Cl)cc1Cl)C(=O)Nc1nccs1 (stereo not given)	79	68	-6	99
Cc1ccc(C2=NN(C(=O)c3ccccc3)C(c3cccc([N+](=O)[O-])c3)C2)cc1 (stereo not given)	nt	nt	-10	104
CCOC(=O)c1nccn1CC(=O)Nc1ccccc1CC	101	102	nt	111
O=C(Nc1ccc2c(c1)OCO2)N1CCc2c([nH]c3ccccc23)C1c1ccccc1F (stereo not given)	nt	nt	-4	106
CN1CCCN(C(=O)Nc2ccc(F)cc2)c2nc3ccccc3nc21	90	99	-13	nt
O=C(NCc1ccc2c(c1)OCO2)c1ccc2noc(-c3ccc(Cl)cc3)c2c1	nt	nt	-22	97
CCOc1ncccc1C(=O)Nc1ccnn1C(C)C1CC1 (stereo not given)	94	90	-20	nt

Among those listed so far, these contain sulfur:
SMILES	Sa growth 42C	Sa growth 42C second temp	HCMV UL50-53 inh	GIV-Gai inh
CCOC(=O)C1=C(C)OC2=C(C(=O)CC(C)(C)C2)C1c1ccc(CC)s1 (stereo not given)	80	88	-28	nt
CCOC(=O)C1=C(N)OC2=C(C(=O)CCC2)C1c1ccc(CC)s1 (stereo not given)	nt	nt	-14	110
Cc1c(C(=O)N(C)C)sc2c1c(=O)n(-c1ccc(Cl)c(Cl)c1)c(=O)n2CC(=O)N1CCCCC1C (stereo not given)	100	82	nt	102
Cc1ccc(S(=O)(=O)N2CCN(C3=CC(=O)CC(C)(C)C3)CC2)cc1	102	95	-6	nt
Cc1ccc(N=C2NC(=O)CC(C(=O)Nc3ccc(Cl)cc3)S2)cc1C (stereo not given)	93	88	nt	106
CCN(c1ccccc1)S(=O)(=O)c1ccc(C(=O)N2CCN(c3ncccn3)CC2)cc1	78	97	-22	nt
N#Cc1nc(-c2ccc(S(=O)(=O)N3CCOCC3)cc2)oc1NCC1CCCO1 (stereo not given)	nt	nt	-10	107
Cc1nn(-c2ccccc2)nc1CNC(=O)c1ccc2nsnc2c1	94	88	-83	108
CC1=C(c2ccccc2)S(=O)(=O)NC1=NC1CCN(Cc2ccccc2)CC1	84	84	-9	98
CCCN1CCN(CCCNC(=O)c2ccc(CS(=O)c3ccc(OC)cc3)o2)CC1 (stereo not given)	111	92	nt	102
Fc1cc(Br)ccc1Nc1c2c(nc3nc(-c4cccs4)nn13)CCCC2	81	59	nt	108
Cc1cc2c(cc1S(=O)(=O)Nc1cccc(Cl)c1C)n(C)c(=O)c(=O)n2C	117	91	nt	101
Oc1ccc(-n2nnnc2SCc2ccc(-n3ccnc3)cc2)cc1	95	94	-12	nt
COCCNC(=O)c1ccc2c(c1)N(Cc1c(F)cccc1Cl)C(=O)c1ccccc1S2	96	88	-20	105
CC(Oc1ccc(Cl)cc1Cl)C(=O)Nc1nccs1 (stereo not given)	79	68	-6	99

The listing continues.
SMILES	Sa growth 42C	Sa growth 42C second temp	HCMV UL50-53 inh	GIV-Gai inh
Cc1ccc(C2C3=C(CC(c4ccccc4O)CC3=O)Nc3ncnn32)cc1 (stereo not given)	nt	nt	2	110
Cc1oc2ccc(O)c(CN3CCOCC3)c2c1C(=O)OCC(C)C	nt	nt	-19	98
CCc1ccccc1NC(=O)Cc1ccc(-n2cccc2)cc1	117	80	-14	107
CCSc1nc2nn(-c3ccccc3)c(=O)c-2c2n1CCCCC2	88	96	-27	nt
O=C(Nc1cc(-c2nc3ccccc3o2)ccc1Cl)c1ccc2c(c1)OCCO2	nt	nt	-20	107
O=C(O)CCCNC1=NCCN1	112	87	-14	96
COCCNC(=O)CN1CCN(c2ccc(NC(=O)C3CCC3)c(C(=O)O)c2)CC1	nt	nt	-27	100
C=CCn1c(CCCN2C(=O)c3cccc4cccc(c34)C2=O)nnc1SCC(=O)NCc1cccnc1	nt	nt	-48	101
Cc1cc(C)n2cc(CSCC(=O)O)nc2n1	85	89	-3	nt
CC(C)(C)N(C(=O)c1ccc(S(=O)(=O)N2CCCC2)cc1)C(=O)N1CCCCC1	106	102	4	100
CCCCCn1cn[nH]c1=S	81	89	-2	nt
Cc1ccccc1Nc1nnc(SCC(C)C)s1	70	63	-23	nt
O=C(NC(=S)N1CCN(c2ccccc2)CC1)c1ccccc1	133	85	-6	105
OCC1(CO)COC(c2ccc(Cl)cc2Cl)=N1	104	96	-5	100
O=C(COc1ccccc1)Nc1c(C(=O)c2ccccc2)oc2ccccc12	64	82	nt	106
CCOC(=O)COc1ccc2c(C)cc(=O)oc2c1	98	82	-6	nt
CCC(=O)N1CCc2cc(S(=O)(=O)N(CC)c3ccccc3)ccc21	115	85	nt	101
CCOC(=O)Cn1c(=N)n(CCOc2ccc(OC)cc2)c2ccccc21	105	84	1	101
CCNc1nc(NCC)nc(OCCNS(=O)(=O)c2ccc(C)cc2)n1	nt	nt	-26	101
C=CCN1C(=O)CSc2ccc(C(=O)N3CCN(c4ccccn4)CC3)cc21	89	94	3	102
O=C(CSc1nc(=O)n(Cc2ccncc2)c2c1CCC2)Nc1cccc(F)c1	107	101	nt	111
CCOC(=O)c1c(C)n(-c2ccccc2)c2ccc(OC(=O)c3ccc(S(=O)(=O)N4CCOCC4)cc3)cc12	nt	nt	-9	126
Cc1ccc(-n2nc(C)c3c(C)c(CCC(=O)N4CCC(N5CCCCC5)CC4)c(C)nc32)cc1C	nt	nt	-26	100
Cc1ccc(NC(=O)c2c(C)oc3ccc(O)c(CN4CCCCCC4)c23)c(C)c1	101	64	4	100
COc1ccc(Cn2nnc(C(=O)Nc3cc(OC)ccc3OC)c2N)cc1	106	99	-5	107
COc1ccc(C(=O)N2CCN(C(C)C)CC2)cc1	97	83	1	nt
COC(=O)c1sccc1S(=O)(=O)N1CCCC1	98	102	3	105
O=C(c1cc2cc(Cl)ccc2[nH]1)N1CCN(c2ccc(=O)n(-c3ccccc3)n2)CC1	nt	nt	-36	106
Cc1cccc(-c2nn(-c3ccccc3)c3nc(OCC(=O)NCc4ccccc4C)cc(C)c23)c1	nt	nt	-16	104
CC(C)c1ccc(NC(=O)[C@@H](c2ccccc2)N2Cc3ccccc3C2=O)cc1	99	80	nt	102
COC(=O)c1ccc(-c2nc3ccccc3o2)cc1	95	87	1	nt
CN(CC(=O)NCc1ccc(Cl)cc1)S(=O)(=O)c1ccc2c(c1)CCCC(=O)N2	108	98	-10&-10	100&107
COC(=O)c1ccc(NC(=O)CSc2nc3c([nH]2)c(=O)n(C)c(=O)n3C)cc1	nt	nt	-9	106
CCOc1ccc(CCNC(=O)c2cccc(Nc3nc4ccccc4nc3-n3nc(C)cc3C)c2)cc1OCC	114	95	-14	109
CCOc1ccc(-c2nc(C#N)c(N3CCN(CC)CC3)o2)cc1	91	89	-2	100
O=C(Nc1ccccc1Cl)c1ccc(-n2nc(OCc3ccc(Cl)cc3)ccc2=O)cc1	nt	nt	-26	107
CCOCC(=O)N1CCN(CC)CC1	97	102	-4	108
O=C(CN1C(=O)c2ccccc2S1(=O)=O)N1CCc2ccccc2C1	108	102	6	nt
Cc1cc(C)c(-c2cc(C(F)(F)F)no2)c(=O)[nH]1	68	91	nt	99
CC1CCN(c2ncnc3c2sc2nc(C(C)C)c4c(c23)CC(C)(C)OC4)CC1	nt	nt	22	100
COc1ccc(C2CC(c3nc4ccccc4[nH]3)=NN2C(=O)c2ccc(Br)o2)cc1 (stereo not given)	134	84	-5	100
O=C(/C=C/c1cn(-c2ccccc2)nc1-c1cc2ccccc2o1)OCC(=O)c1ccc[nH]1	105	90	-14	nt
O=C(NCCn1cc(SCc2ccc(C(F)(F)F)cc2)c2ccccc21)c1ccccc1F	80	90	-16	105
O=C(NCc1ccc2c(c1)OCO2)c1ccc2c(c1)N(Cc1ccccc1)C(=O)c1ccccc1S2=O (stereo not given)	106	97	-10	103
O=C(O)c1cc(N=Cc2ccccc2)ccc1O	103	64	4	101
Cc1cccc(NC(=O)COC(=O)CC2CCCC2)c1C	96	85	-8	nt
CC(NC(=O)C1=NNC(=O)CC1)C12CC3CC(CC(C3)C1)C2 (stereo not given)	75	83	-30	nt
CN1C(C)(C)CC(NC(=O)Nc2ccc(F)cc2)CC1(C)C	97	94	-30	100

Full records from above. Order of screens: Sa growth 42C, Sa growth 42C second temp, HCMV UL50-53 inh, GIV-Gai inh
Entry for CN1C(C)(C)CC(NC(=O)Nc2ccc(F)cc2)CC1(C)C : 97, 94, -30, 100
Entry for COc1ccc(C2CC(c3nc4ccccc4[nH]3)=NN2C(=O)c2ccc(Br)o2)cc1 (stereo not given) : 134, 84, -5, 100

New compounds follow:
SMILES	Sa growth 42C	Sa growth 42C second temp	HCMV UL50-53 inh	GIV-Gai inh
Cc1nn(-c2ccccc2)c(-n2cccc2)c1C(=O)N1CCC(Cc2ccccc2)CC1	nt	nt	-13	104
O=C(O)c1ccc(-c2ccccc2)cc1	112	104	8	101
O=c1[nH]c2ccc(NCc3ccccc3F)cc2[nH]1	95	84	-30&-12	96&99
COc1cc2c(=O)n(Cc3ccccc3Cl)c(=O)n(CC(=O)NC3CCCCC3)c2cc1OC	113	91	nt	100
CN(C)S(=O)(=O)c1cccc(C(=O)c2nccn2C)c1	70	91	-21	nt
COc1cc(Cl)c(C)cc1NC(=O)c1ccc2c(Cl)c3c(nc2c1)CCC3	112	89	-3	106
COC(=O)CC(=O)Nc1cc2c(cc1N1CCCC1)n(C)c(=O)n2C	86	73	-32	96
O=C(CC1Nc2cccc3cccc(c23)NC1=O)Nc1ccc(F)cc1 (stereo not given)	103	90	-4	107
CC(=O)Oc1cc(OC(C)=O)c2c(=O)c(-c3ccc4c(c3)OCCCO4)c(C)oc2c1	nt	nt	-8	103
Cc1ccc2c(=O)c(C(=O)c3cccc(Cl)c3)cn(CC(=O)Nc3ccccc3C(F)(F)F)c2n1	93	91	nt	107
Cc1cn(C)c(CC(=O)N2CCN(c3cccc(C(F)(F)F)c3)CC2)c1C(=O)O	114	98	nt	106
